Rango dissoc inh – inhibition of RanGTP-driven Rango-importin beta dissociation. O95149+P62826. Biochemical FRET Rango-importin beta, RanGTP-induced dissociation. Potency, µM (highest dose often 46.1 µM), without a hit: at the highest dose activity change, negative = inhibition. 0.071% of 340,000 active; active means falling FRET ratio curve, often poorly fitted, with flat reads before Ran was added; inconclusive means other falling curves, or compound fluorescence or quenching; inactive means flat or rising ratio curve;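 also: potency is read from the fitted curve at half-maximal effect; % of control where 0% means no effect; nearly all actives have a fitted effect of over 45% in size; -100% = wells without RanGTP and RCC1; the record marks most hits as doubtful in a second field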
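Rango (0.1 uM)–importin beta (0.25 uM) complex; RanGTP-RCC1 trigger; 45 min RT; CFP/YFP FRET read.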
GLA inh pH 4.5 – blocks human alpha-galactosidase A at pH 4.5; 230,000 tested, under 10 active; activity change, negative = inhibition, % at 105 µM; P06280; purified enzyme, 4-MU-alpha-Gal fluorescence, pH 4.5; inconclusive = small, poorly fitted or top-dose-only inhibition, or a rising curve; inactive = flat fitted curve, though single readings scatter; no compound was filed as active;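 also: 0% = full activity with enzyme and -100% = basal without enzyme; dose as in the result columns while the protocol names 77 µM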
Target sequence (P06280 whole entry, looked up): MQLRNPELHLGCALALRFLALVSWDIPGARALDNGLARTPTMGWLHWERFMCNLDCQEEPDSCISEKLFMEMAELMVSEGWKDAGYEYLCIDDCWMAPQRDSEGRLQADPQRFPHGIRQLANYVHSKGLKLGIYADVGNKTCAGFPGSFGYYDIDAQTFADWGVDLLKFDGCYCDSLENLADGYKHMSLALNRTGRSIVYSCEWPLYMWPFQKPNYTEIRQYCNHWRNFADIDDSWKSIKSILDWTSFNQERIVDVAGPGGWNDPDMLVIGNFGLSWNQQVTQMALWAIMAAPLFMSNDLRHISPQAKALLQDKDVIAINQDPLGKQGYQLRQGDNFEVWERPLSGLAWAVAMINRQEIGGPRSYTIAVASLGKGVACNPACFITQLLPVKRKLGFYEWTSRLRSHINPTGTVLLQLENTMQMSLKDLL
Rango complex inh – inhibitors of Rango-importin beta complex formation; Rango CFP/YFP FRET sensor + importin beta, 45 min; 0.031% of 340,000 active; Q14974; Potency, µM (series often up to 92.2 µM), inactives show at the top dose inhibition of complex formation; AID 540263; active = rising FRET ratio curve, often small or poorly fitted; inconclusive = mostly compound fluorescence or quenching in the first reads; inactive = flat curves in all reads;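 also: potency is read from the fitted curve at half-maximal effect; 0% = DMSO wells and 100% = buffer wells lacking importin beta; nearly all actives have a fitted effect of over 15% in size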
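FRET biosensor (snurportin 1 IBB flanked by EYFP and cerulean), 50 nM, with compound 5 min, then 0.125 microM importin beta in PBS, 1 mM DTT, 0.02% Tween-20, 0.1% BSA. CFP/YFP ratio read after 45 min at room temperature; pre-read flags interference.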
miR-21 reporter – raises the signal of a miR-21 reporter; Potency, µM (titrated, usually from 38.3 µM), inactives show at the highest dose reporter change, positive = more light; HeLa miR-21 FLuc reporter, luciferase, 48 h; 340,000 tested, under 10 active; active = well fitted rising curve with a large enough effect; inconclusive = small, poorly fitted or top-dose-only effect; inactive = no such curve, though single readings can be large or run the other way;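 also: % of control where 0% means no effect; miR-21 action dims this reporter so a rising signal means less miR-21 action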
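HeLa cells endogenously expressing miR-21, stably carrying CMV-driven firefly luciferase with a downstream miR-21 binding site, 2000 cells/well. Titrations up to approximately 40 uM, 48 hours; luciferase luminescence read.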
Active calls of the source: *; & = joins results of further samples; [ ] = dose if it differs, or a comment. The list is partial; the hit share may differ from the screen's.

How did Cc1c(Cl)cccc1NC(=O)CCNC(=O)N1CC(=O)Nc2ccccc21 do in these assays?
Rango dissoc inh: 15%; Rango complex inh: inconclusive; miR-21 reporter: 2%

Results for CC(=O)NC1C(=O)N=C(SCC(=O)NC2CCCCC2)NC1=O (centres undefined) ?
Rango dissoc inh: 1%; GLA inh pH 4.5: 3; Rango complex inh: -0.2%; miR-21 reporter: -17%

How did COC(=O)c1ccccc1NC(=O)c1cc([N+](=O)[O-])nn1Cc1ccccc1 do in these assays?
Rango dissoc inh: 2%; GLA inh pH 4.5: -17; Rango complex inh: 0.6%; miR-21 reporter: -4%

What do the screens show for `CCOc1ccc2nc(NC(=O)c3cnc(C)cn3)sc2c1`?
Rango dissoc inh: -10%; GLA inh pH 4.5: -3; Rango complex inh: -4.4%; miR-21 reporter: -20%

How did Cc1cccc(OCC(=O)NC(=S)NNC(=O)c2ccncc2)c1 do in these assays?
Rango dissoc inh: 1%; Rango complex inh: 1.4%; miR-21 reporter: -6%

How did c1ccc2c(c1)-c1ccccc1C2N1CCOCC1 do in these assays?
Rango dissoc inh: 7%; Rango complex inh: 4.4%

How did O=C(NC1CCCC1)c1ccc(Br)c(S(=O)(=O)N2CCCCC2)c1 do in these assays?
Rango dissoc inh: 0%; Rango complex inh: 0.9%; miR-21 reporter: -2%

Results for CC(Oc1ccc2ccc(=O)oc2c1)C(=O)NC1CCN(Cc2ccccc2)CC1 (centres undefined) ?
Rango dissoc inh: -4%; Rango complex inh: 3.8%; miR-21 reporter: -2%

Results for CCc1cccc(C)c1NC(=S)NCc1ccc2c(c1)cc(C)n2C ?
Rango dissoc inh: -18%; GLA inh pH 4.5: -5; Rango complex inh: 0.5%; miR-21 reporter: 14%

How did COc1cc([N+](=O)[O-])ccc1-c1ccc(/C=N/NC(=O)c2ccccc2O)o1 do in these assays?
GLA inh pH 4.5: -8; miR-21 reporter: -15%

What do the screens show for `CCOc1ccc(OCCC(=O)NNC(=O)c2cc(C)oc2C)cc1`?
Rango dissoc inh: 2%; Rango complex inh: -1.8%

How did CN(CC(O)COc1ccc(OCC(O)CN(C)C2CCCCC2)cc1)C1CCCCC1 (centres undefined) do in these assays?
Rango dissoc inh: 4%; GLA inh pH 4.5: -4; Rango complex inh: -1.5%; miR-21 reporter: -19%

Results for CCCc1cc2c(-c3ccccc3)cc(=O)oc2cc1OCc1ccc(C(=O)O)o1 ?
Rango dissoc inh: -21%; GLA inh pH 4.5: -7; Rango complex inh: 6.4%; miR-21 reporter: -5%

How did O=C(CC1CCCC1)N1CCN(S(=O)(=O)c2ccc(F)cc2)CC1 do in these assays?
Rango dissoc inh: -10%; Rango complex inh: 4.0%

How did COc1ccc(S(=O)(=O)N2CCCCCC2)cc1C(=O)N(C)Cc1ccccc1F do in these assays?
Rango dissoc inh: 3%; Rango complex inh: -1.4%

Results for COC(=O)CCC(=O)OC1(C)C(=O)C2=CN(C(CO)CO)C(c3ccc(OC)cc3)=CC2=C(Br)C1=O (centres undefined) ?
GLA inh pH 4.5: 5&1; miR-21 reporter: 1%

How did O=C1c2ccccc2C(=O)N1CCCCN(C(=O)c1ccco1)c1ccc(Cl)cc1 do in these assays?
Rango dissoc inh: 0%; GLA inh pH 4.5: -10; Rango complex inh: -2.4%; miR-21 reporter: -5%

What do the screens show for `COc1ccc(C)cc1NC(=O)c1cccc(C(=O)Nc2cc(C)ccc2OC)n1`?
Rango dissoc inh: -6%; Rango complex inh: 5.6%; miR-21 reporter: 3%

Results for O=C(NC1CCCCC1)C(c1ccccc1)N1CCc2ccccc21 (centres undefined) ?
Rango dissoc inh: -11%; GLA inh pH 4.5: 2; Rango complex inh: 1.1%; miR-21 reporter: -1%

How did O=C(O)c1nccnc1C(=O)Nc1ccccc1-c1ccccc1 do in these assays?
Rango dissoc inh: -10%; GLA inh pH 4.5: 4; Rango complex inh: 0.1%; miR-21 reporter: 2%

Five consecutive compounds already listed, quoted:
Results for COC(=O)CCC(=O)OC1(C)C(=O)C2=CN(C(CO)CO)C(c3ccc(OC)cc3)=CC2=C(Br)C1=O (centres undefined) ?
GLA inh pH 4.5: 5&1; miR-21 reporter: 1%

How did O=C1c2ccccc2C(=O)N1CCCCN(C(=O)c1ccco1)c1ccc(Cl)cc1 do in these assays?
Rango dissoc inh: 0%; GLA inh pH 4.5: -10; Rango complex inh: -2.4%; miR-21 reporter: -5%

What do the screens show for `COc1ccc(C)cc1NC(=O)c1cccc(C(=O)Nc2cc(C)ccc2OC)n1`?
Rango dissoc inh: -6%; Rango complex inh: 5.6%; miR-21 reporter: 3%

Results for O=C(NC1CCCCC1)C(c1ccccc1)N1CCc2ccccc21 (centres undefined) ?
Rango dissoc inh: -11%; GLA inh pH 4.5: 2; Rango complex inh: 1.1%; miR-21 reporter: -1%

How did O=C(O)c1nccnc1C(=O)Nc1ccccc1-c1ccccc1 do in these assays?
Rango dissoc inh: -10%; GLA inh pH 4.5: 4; Rango complex inh: 0.1%; miR-21 reporter: 2%

Other compounds.
What do the screens show for `COC(=O)C(C)Sc1ccc2nnc(-c3ccccc3)n2n1` (centres undefined)?
Rango dissoc inh: 2%; GLA inh pH 4.5: -10; Rango complex inh: inconclusive; miR-21 reporter: -2%

How did COc1ccc(C(=O)NNC(=O)c2ccc(S(=O)(=O)N3CC(C)OC(C)C3)cc2)cc1 (centres undefined) do in these assays?
Rango dissoc inh: 10%; GLA inh pH 4.5: -5[21.1 µM]; Rango complex inh: 2.9%; miR-21 reporter: 2%

How did COc1ccc(OC)c(NC(=O)CSCC(=O)O)c1 do in these assays?
Rango dissoc inh: inconclusive; GLA inh pH 4.5: -2; Rango complex inh: inconclusive; miR-21 reporter: 0%

Results for NC1=NC(=O)/C(=C/C=C/c2cccs2)S1 ?
Rango dissoc inh: 6%; Rango complex inh: 2.5%

Results for CCc1c(C)sc(NC(=O)c2cccs2)c1C(N)=O ?
Rango dissoc inh: -12%; GLA inh pH 4.5: -7; Rango complex inh: -3.1%; miR-21 reporter: -47%

What do the screens show for `Cc1cccc(N2C(=O)SC(N(C)c3ccccc3)C2=O)c1` (centres undefined)?
Rango dissoc inh: 1%; GLA inh pH 4.5: -3; Rango complex inh: -0.4%; miR-21 reporter: 0%

How did O=C(Nc1ccccc1)Nc1ccc2snnc2c1 do in these assays?
Rango dissoc inh: -8%; GLA inh pH 4.5: 1; Rango complex inh: -2.2%; miR-21 reporter: 0%

How did CCC(Sc1nc2cc(OC)c(OC)cc2c(=O)n1Cc1ccco1)C(=O)NCCOC (centres undefined) do in these assays?
Rango dissoc inh: -13%; GLA inh pH 4.5: 3; Rango complex inh: -3.0%; miR-21 reporter: -4%

What do the screens show for `CN(C)CCCn1c(N)c(S(=O)(=O)c2ccccc2)c2nc3ccccc3nc21`?
Rango dissoc inh: 5%; GLA inh pH 4.5: inconclusive; Rango complex inh: -0.5%; miR-21 reporter: 0%

What do the screens show for `CCOC(=O)C1CCCN(Cc2ccc(OC)cc2OC)C1` (centres undefined)?
Rango dissoc inh: -2%; GLA inh pH 4.5: -13; Rango complex inh: 1.6%; miR-21 reporter: -2%

What do the screens show for `CCCCn1nc(C(=O)Nc2ccc(S(=O)(=O)Nc3ncccn3)cc2)c2ccccc2c1=O`?
Rango dissoc inh: 4%; GLA inh pH 4.5: 3; Rango complex inh: -3.1%; miR-21 reporter: 3%

Results for COc1ccc(CNC(=O)C2CCC(=O)N(CCCN3CCCC3=O)C2)cc1 (centres undefined) ?
Rango dissoc inh: 21%; Rango complex inh: 0.5%; miR-21 reporter: -5%

What do the screens show for `O=C(O)CCCCCNC(=O)/C(=C\c1ccco1)NC(=O)c1ccco1`?
Rango dissoc inh: -10%; Rango complex inh: -0.3%; miR-21 reporter: 3%

How did Cc1c(/C=C/C(=O)c2ccccc2O)cnn1C do in these assays?
Rango dissoc inh: -4%; GLA inh pH 4.5: 0; Rango complex inh: inconclusive; miR-21 reporter: -63%

What do the screens show for `O=C(NCc1ccccc1Cl)NC(=O)c1ccccc1`?
Rango dissoc inh: 16%; GLA inh pH 4.5: 0; Rango complex inh: -1.5%; miR-21 reporter: -8%

How did O=S(=O)(Nc1nc2ccccc2s1)c1cnc(Cl)c(Br)c1 do in these assays?
Rango dissoc inh: -22%; GLA inh pH 4.5: -1; Rango complex inh: -2.3%; miR-21 reporter: -4%

Results for C[C@H]1CN=C(Nc2ccccc2)N1CCC1CCCCC1 ?
Rango dissoc inh: 34%; Rango complex inh: -1.1%; miR-21 reporter: 9%

Results for COc1cccc2[nH]c(C(=O)NC(C)c3ccccc3)cc12 (centres undefined) ?
Rango dissoc inh: 17%; Rango complex inh: 1.0%; miR-21 reporter: 6%

How did COc1ccc(NC(=O)Nc2ccccc2C(N)=O)cc1 do in these assays?
Rango dissoc inh: -11%; GLA inh pH 4.5: 8; Rango complex inh: 0.8%; miR-21 reporter: -20%

How did Cc1ccccc1C(=O)OC1CCN(C)CC1 do in these assays?
Rango dissoc inh: -13%; Rango complex inh: -1.3%; miR-21 reporter: -6%

What do the screens show for `CCN1CCc2c(C#N)c(N3CCCCC3)nc(N3CCOCC3)c2C1`?
Rango dissoc inh: inconclusive; GLA inh pH 4.5: 2; Rango complex inh: inconclusive; miR-21 reporter: -12%

Results for Cc1cccc(CN2CCSCC2)c1 ?
Rango dissoc inh: 6%; Rango complex inh: 1.6%; miR-21 reporter: 6%

What do the screens show for `C=CCc1cccc(OC)c1OCCOCCn1ccnc1`?
Rango dissoc inh: 11%; GLA inh pH 4.5: -4; Rango complex inh: 1.6%; miR-21 reporter: -1%

Results for c1ccc(CN2CCN(Cc3nnc(-c4ccccc4)o3)CC2)cc1 ?
Rango dissoc inh: -11%; GLA inh pH 4.5: -6; Rango complex inh: -0.3%; miR-21 reporter: -1%

Results for CCn1c(CCc2ccccc2)nc2ccccc21 ?
Rango dissoc inh: -3%; Rango complex inh: 5.5%; miR-21 reporter: -35%

How did Cc1ccc(S(=O)(=O)Nc2ccccc2)cc1C(=O)N1CCCC1 do in these assays?
Rango dissoc inh: -7%; Rango complex inh: -1.8%; miR-21 reporter: 1%

Results for CCN(CC)c1ccc(/C=c2/sc3nnc(-c4ccccc4C)n3c2=O)cc1 ?
Rango dissoc inh: -11%; GLA inh pH 4.5: -4; Rango complex inh: inconclusive; miR-21 reporter: -2%

Results for CN(C)S(=O)(=O)c1cccc(COC(=O)c2cccnc2Cl)c1 ?
Rango dissoc inh: 10%; Rango complex inh: -7.4%; miR-21 reporter: 8%

Results for COc1ccc(Cl)cc1C(=O)Nc1ccc(NC(=O)C(C)C)cc1 ?
Rango dissoc inh: -14%; GLA inh pH 4.5: 7; Rango complex inh: 3.4%; miR-21 reporter: -31%

How did CCCN1CCN(C(=O)c2noc3c2COc2ccc(C)cc2-3)CC1 do in these assays?
Rango dissoc inh: -13%; Rango complex inh: 3.5%; miR-21 reporter: -11%

Results for COc1ccc(S(=O)(=O)N2CCC(Nc3ccccc3Cl)CC2)cc1 ?
Rango dissoc inh: 0%; Rango complex inh: -5.7%; miR-21 reporter: -1%

How did COc1ccccc1OCCC(=O)OCC(=O)Nc1ccc(S(=O)(=O)N2CCOCC2)cc1 do in these assays?
Rango dissoc inh: -8%; GLA inh pH 4.5: -24; Rango complex inh: -4.9%; miR-21 reporter: 0%

Results for COc1ccc(-n2cnnc2SCc2cnc(-c3ccccc3)s2)cc1 ?
Rango dissoc inh: -13%; GLA inh pH 4.5: 3; Rango complex inh: -2.5%; miR-21 reporter: -10%

Results for CN1CCN(S(=O)(=O)c2ccc(NC(=S)NC(=O)C3CCC3)cc2)CC1 ?
Rango dissoc inh: 3%; GLA inh pH 4.5: -6; Rango complex inh: -1.5%; miR-21 reporter: 2%

Results for Cn1c(=O)[nH]c(=O)c2c1nc(N/N=C/c1cccnc1)n2Cc1ccc(Cl)cc1 ?
Rango dissoc inh: 9%; GLA inh pH 4.5: 0; Rango complex inh: 8.5%; miR-21 reporter: -8%

What do the screens show for `CC(=O)Oc1ccc(C(=O)Cc2ccc3ccccc3n2)c(O)c1C`?
Rango dissoc inh: 18%; GLA inh pH 4.5: -1; Rango complex inh: -2.2%; miR-21 reporter: -29%

Results for Nc1nc(N)nc(-c2cccc(Cl)c2)n1 ?
Rango dissoc inh: 1%; Rango complex inh: 3.8%

What do the screens show for `CCOc1cccc(C=NCCc2ccc(OC)c(OC)c2)c1O`?
Rango dissoc inh: -1%; Rango complex inh: 5.5%; miR-21 reporter: 0%
